# NPYLR7 ag: mosquito NPYLR7 agonism; HEK293T NPYLR7/Galpha15, GCaMP6s calcium fluorescence; activation, % at 10 µM; 0.15% of 270,000 active; AID 1259423; in the data active = activation above about 40%;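 also: 0% = vehicle and 100% = reference agonist at the receptor; some compounds past the cut are filed as inactive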
# NPYLR7 ag max-min: further read-out of NPYLR7 ag, marked with its call; activation, %; measured here: Max-Min RFU normalised activation; some inactives read as strong as hits;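 span of the calcium signal over five minutes; 0% = vehicle and 100% = native peptide agonist; compound fluorescence can raise it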
# The depositor's hits bear a star; & = joins results of further samples. Some of the compounds tested. The share of hits here may be higher or lower than overall.
SMILES,NPYLR7 ag,NPYLR7 ag max-min
CC1C(=O)N(c2ccc3c(c2)CCC3)CCN1C(=O)Cc1ccccc1 (stereo unspecified),1,5
O=C(NCC(F)(F)F)c1cc(-c2ccc(Cl)cc2)n[nH]1,0,0
CCN(C(=O)c1cccn(Cc2ccccc2C)c1=O)c1ccccc1,12,5
COc1ccc(Nc2ncccc2C(=O)NCCCN(C)c2ccccc2)cc1,-12,-19
COc1ccccc1-c1cnn2c(C)c(C(=O)N3CCCCC3C)cnc12 (stereo unspecified),10,-1
CSCCOC(=O)C1=C(C)NC(=O)NC1c1ccccc1F (stereo unspecified),-3,-5
CCC1CCCCN1Cc1nc2c(c(=O)n(C)c(=O)n2C)n1Cc1cccc2ccccc12 (stereo unspecified),5,3
COC(=O)Cn1c(=O)c2c(nc3n(CC(C)C)c(C)cn23)n(C)c1=O,7,0
COc1ccc(NC(=O)CN(C)CC(=O)N2CCN(c3ccccc3F)CC2)cc1,5,4
COC(=O)C1=C(C)N(C)C(=S)NC1c1ccc(NC(=O)NC2CCCCC2)cc1 (stereo unspecified),15,17
CN(N)c1nc(N2CCOCC2)nc(N2CCOCC2)n1,-6,-15
COc1cc(OC)c(C(=O)OC(C)C#N)cc1OC (stereo unspecified),1,1
O=C(C1=C(O)C(=O)N(CCCN2CCOCC2)C1c1cccs1)c1ccco1 (stereo unspecified),3,3
O=C(Nc1nccs1)C1CCN(c2ccc(C(F)(F)F)cn2)CC1,-1,-1
NC(=O)C1CCCN1C1CCN(C(=O)c2cc(Cl)ccn2)CC1 (stereo unspecified),7,5
O=c1oc2cc(O)c(Cl)cc2c2c1CCCC2,-1,2
CCOc1ccccc1C(=O)Nc1cc(C(C)(C)C)nn1-c1cccc(F)c1,3,1
COC(=O)c1ccc(CNC(=O)CN2CC(C3CCCCC3)CC2C(=O)OC)cc1 (stereo unspecified),3,5
C=CCN(CC=C)Cn1[nH]c(=O)ccc1=O,-1,9
CCc1nnc(CN2CCCC2c2ccc(F)cc2)o1 (stereo unspecified),1,2
Nc1cc(S(=O)(=O)Nc2cc(Cl)ccc2Cl)ccc1N1CCCC1,1,-1
O=S(=O)(NCCOc1ccc2nnc(-c3ccccc3)n2n1)c1ccc2c(c1)CCCC2,3,1
Cc1ccc(-n2ncc3c(C(C)C)nnc(SCC(=O)N4CCOCC4)c32)cc1C,-8,-13
FC(F)(F)c1ccc(-c2nc(CSc3ccc(C(F)(F)F)cn3)cs2)cc1,20,13
CN(C)S(=O)(=O)c1ccc(C(=O)Oc2coc(CSc3ncccn3)cc2=O)cc1,-25,-10

# (cont.)
SMILES,NPYLR7 ag,NPYLR7 ag max-min
O=S(=O)(c1cc(Cl)cc(Cl)c1)N1CCN(CCCOC(c2ccc(Cl)cc2)c2ccc(Cl)cc2)CC1,1,0
Cc1ncsc1CCC(=O)N1CCC(O)(c2ccc(F)cc2)CC1,-7,-7
COc1ccc(Br)c(C(=O)Nc2cc(C(=O)Nc3ccc(OC)c(OC)c3)ccc2N2CC3CC(C2)c2cccc(=O)n2C3)c1 (stereo unspecified),-8,-4
Cc1c(C(=O)N2CCC(C(N)=O)CC2)cc(-c2ccccc2)n1-c1ccc2c(c1)OCO2,16,21
CN(Cc1cccc(-n2cccn2)c1)Cc1nc(Cc2ccccc2Cl)no1,2,-2
Cc1ccc(C)c(S(=O)(=O)c2cnc(SCC(=O)Nc3cccc(C(F)(F)F)c3)[nH]c2=O)c1,-12,-10
C[C@]12C=CC(=O)NC1CCC1C2CC[C@@]2(C)C1CC[C@@H]2C(=O)Nc1cc(C(F)(F)F)ccc1C(F)(F)F (stereo partly specified),1,7
CCN(CC)CCNC(=O)c1cc(NC(=O)Nc2ccc(C)c(C)c2)ccc1N1CCCC1,15&-9,9&2
CCC(C)N(Cc1cc(NC(=O)NC(C)C)ccc1N(C)C)C(=O)c1cccc(C)c1 (stereo unspecified),18,20
CC1CN(C(=O)C(NC(=O)c2c(F)cccc2F)C(C)C)CC(C)O1 (stereo unspecified),5,3
O=C(NCC1CCCN(C(=O)c2cccc(Cn3cccn3)c2)C1)c1ccc(F)cc1 (stereo unspecified),-4,-7
Cc1ccc(C(=O)NCCc2cccc(F)c2)s1,3,2
CCOc1ccc(-n2c(C(C)N(CCc3ccc(OC)c(OC)c3)C(=O)CCc3ccccc3)nc3ccccc3c2=O)cc1 (stereo unspecified),-9,-6
COc1ccc(CCN2CC3=C(C2=O)C(c2ccccc2Cl)NC(=O)N3)cc1 (stereo unspecified),10,12
COC(=O)c1sc(N2C(=O)C(=O)C(=C(O)c3ccccc3)C2c2ccccc2)nc1C (stereo unspecified),1,1
CCCNC(=O)c1cc(C2CCCCN2S(C)(=O)=O)on1 (stereo unspecified),-2,-5
CCN(C(=O)c1cccc(F)c1F)[C@@H]1CCN(c2ccnc(N)n2)C[C@H]1O,3,1
O=C(Cn1c(-c2ccncc2)nc2ccccc21)N1CCN(c2ccccc2)CC1,-11,-16
C=CCN(Cc1nccn1Cc1ccccc1F)C(=O)c1cccc(F)c1,6,6
Cc1cccc(OC(F)F)c1NC(=O)C1(C)CCN1C(=O)Cc1ccc(-c2ccccc2)cc1 (stereo unspecified),-4,-7
O=S(=O)(NCCOc1cc(N2CCCC2)ncn1)c1cccnc1,2,1
O=S(=O)(Cc1ccc(F)cc1Cl)C12CC3CC(CC(C3)C1)C2,18,12
CC(=O)c1cc(Cl)cc(CN(C)CC(=O)Nc2ccccc2)c1O,5,5
COc1cccc(-c2nc(COC(=O)c3nnn(-c4ccc(C)c(F)c4)c3C)c(C)o2)c1OC,1,-2
CCC1CN(C(=O)NCc2csc(Br)c2)CCO1 (stereo unspecified),1,-1

# (further entries)
SMILES,NPYLR7 ag,NPYLR7 ag max-min
CCc1cc(NCC2CCS(=O)(=O)C2)nc(-c2ccncc2)n1 (stereo unspecified),5,6
Cc1ccc(C)c(NC(=O)CSCc2cc(C)no2)c1,-1,-1
CCCC(=O)N1CCN(C(=O)C(NC(=O)c2ccc(F)cc2)S(=O)(=O)c2ccc(F)cc2)CC1 (stereo unspecified),17,17
Cc1cc(NC2CCCCC2)nc(C)n1,13,9
Brc1ccccc1C=NNc1ccc2ccccc2n1,3,1
COCC1CCN(C(=O)c2coc(COc3cccc(F)c3)n2)C1 (stereo unspecified),5,2
Cc1cc(C)nc(SCc2cc(=O)c(OC(=O)c3cc(Cl)ccc3[N+](=O)[O-])co2)n1,-12,-12
Cc1ccc(C(=O)Nc2ccccc2NC(=O)c2c(-c3ccccc3Cl)noc2C)cc1,-11,-14
CC1(C(=O)NCC2CC2)Cc2c(-c3cccc(C(F)(F)F)c3)ccnc2O1 (stereo unspecified),-2,7
COC(=O)C(NC(=O)N1c2ccccc2NC(=O)C1C(C)C)C(C)C (stereo unspecified),-8,-17
COC(=O)Cc1cc(C2CCN(Cc3ccnc4ccccc34)CC2)n[nH]1,8,-4
COc1ccc(C2c3ccsc3CCN2CC(=O)N2CCN(C(=O)COc3ccccc3)C(C)C2)cc1 (stereo unspecified),33,18
CCn1c(CC2CCNCC2)nn(CC2CCN(C)C2)c1=O (stereo unspecified),5,3
CCc1nnsc1C(=O)NC1CCN(c2ccccn2)CC1,-15,-16
CC(Oc1ccccc1F)C(=O)NNS(=O)(=O)c1cccc(Cl)c1 (stereo unspecified),6,-1
NC(=O)c1ccccc1-c1cccc(OC(F)(F)F)c1,9,5
Cc1cccc(NC(=O)c2c(-c3ccccc3Cl)noc2C)c1C,-3,-3
Cn1c(C(F)(F)F)nn(CN2CCN(Cc3ccccc3)CC2)c1=S,4,1
CNC(=O)[C@@]1(OCc2cccc(C)c2)CC(OCc2c(F)cccc2F)[C@H](O)[C@H](O)C1 (stereo partly specified),2,17
CN1CCN2c3ncccc3Cc3ccccc3[C@@H]2C1,0,-7
Cc1cc(O)c(CN(C)Cc2ccccc2)c2c1C(=O)/C(=C/c1ccncc1)O2,15,13
O=c1c2nnn(Cc3ccc(F)cc3)c2ncn1Cc1ccc(F)cc1,8,11
Cn1c(SCC(=O)N2CCCCC2)nnc1-c1ccccc1,10,1
C(=N/N=C(\c1ccccc1)C12CN3CN(CN(C3)C1)C2)/c1cccc2ccccc12,-11,-19
CC(C)N(Cn1nc(-c2cccs2)n(C2CC2)c1=S)C1CC1,4,3

# Part of the list above in order of length of the SMILES, highest first.
SMILES,NPYLR7 ag,NPYLR7 ag max-min
CNC(=O)[C@@]1(OCc2cccc(C)c2)CC(OCc2c(F)cccc2F)[C@H](O)[C@H](O)C1 (stereo partly specified),2,17
CCCC(=O)N1CCN(C(=O)C(NC(=O)c2ccc(F)cc2)S(=O)(=O)c2ccc(F)cc2)CC1 (stereo unspecified),17,17
Cc1cc(C)nc(SCc2cc(=O)c(OC(=O)c3cc(Cl)ccc3[N+](=O)[O-])co2)n1,-12,-12
COc1ccc(C2c3ccsc3CCN2CC(=O)N2CCN(C(=O)COc3ccccc3)C(C)C2)cc1 (stereo unspecified),33,18
C(=N/N=C(\c1ccccc1)C12CN3CN(CN(C3)C1)C2)/c1cccc2ccccc12,-11,-19
Cc1ccc(C(=O)Nc2ccccc2NC(=O)c2c(-c3ccccc3Cl)noc2C)cc1,-11,-14
Cc1cc(O)c(CN(C)Cc2ccccc2)c2c1C(=O)/C(=C/c1ccncc1)O2,15,13
CC1(C(=O)NCC2CC2)Cc2c(-c3cccc(C(F)(F)F)c3)ccnc2O1 (stereo unspecified),-2,7
COC(=O)Cc1cc(C2CCN(Cc3ccnc4ccccc34)CC2)n[nH]1,8,-4
COC(=O)C(NC(=O)N1c2ccccc2NC(=O)C1C(C)C)C(C)C (stereo unspecified),-8,-17
CC(Oc1ccccc1F)C(=O)NNS(=O)(=O)c1cccc(Cl)c1 (stereo unspecified),6,-1
O=c1c2nnn(Cc3ccc(F)cc3)c2ncn1Cc1ccc(F)cc1,8,11
CCc1cc(NCC2CCS(=O)(=O)C2)nc(-c2ccncc2)n1 (stereo unspecified),5,6
COCC1CCN(C(=O)c2coc(COc3cccc(F)c3)n2)C1 (stereo unspecified),5,2
CCn1c(CC2CCNCC2)nn(CC2CCN(C)C2)c1=O (stereo unspecified),5,3
Cn1c(SCC(=O)N2CCCCC2)nnc1-c1ccccc1,10,1
CCc1nnsc1C(=O)NC1CCN(c2ccccn2)CC1,-15,-16
CCC1CN(C(=O)NCc2csc(Br)c2)CCO1 (stereo unspecified),1,-1
Brc1ccccc1C=NNc1ccc2ccccc2n1,3,1
Cc1cc(NC2CCCCC2)nc(C)n1,13,9

# A run of entries from further up, as a working copy:
SMILES,NPYLR7 ag,NPYLR7 ag max-min
CC(Oc1ccccc1F)C(=O)NNS(=O)(=O)c1cccc(Cl)c1 (stereo unspecified),6,-1
NC(=O)c1ccccc1-c1cccc(OC(F)(F)F)c1,9,5
Cc1cccc(NC(=O)c2c(-c3ccccc3Cl)noc2C)c1C,-3,-3

# Carrying on.
SMILES,NPYLR7 ag,NPYLR7 ag max-min
O=C(CCN(Cc1ccccc1)c1nc(Cc2ccccc2)ns1)NC(Cc1ccccc1)c1ccccc1 (stereo unspecified),-1,14
O=C(CCc1ccccc1)Nc1nnc(SCC(=O)c2ccc(F)cc2)s1,-2,-2
Cc1cnccc1CNC(=O)C1(N2CCCCC2)Cc2ccccc2C1,19,9
COc1cccc(NC(=O)CN2Cc3ccc(Nc4cc(C)nn4C)nc3C2=O)c1,11,12
COc1cc(-c2ccnc(N3CCN(C(=O)c4ccccc4Cl)CC3)n2)cc(OC)c1OC,-7,-12
CC(C)CN(Cc1cc(NC(=O)c2ccccc2Cl)ccc1N(C)C)S(=O)(=O)c1ccc(F)cc1,20,17
CCOCCOC1CCCN(C(=O)Nc2ccccc2)C1 (stereo unspecified),-7,2
CCN(CC)Cc1cc(Nc2ccnc3cc(Cl)ccc23)ccc1O,0,-3
O=C(Nc1nc(-c2ccc3c(c2)OCCO3)cs1)c1ccsc1,-1,5
CC(C)c1cc(C(=O)N2CCOC(CCCc3ccccc3)C2)nc2ncnn12 (stereo unspecified),8,3
O=C(COc1ccccc1)N1C[C@H](O)[C@H]2C[C@@H]1CC[C@@H]2O,-2,5
COc1ccc2c(c1)OCC(C=C(C#N)S(=O)(=O)c1ccc(Br)cc1)=C2,93*,81*
CCC1CCc2ccccc2N1Cc1cc(C)n(C)n1 (stereo unspecified),8,6
Cc1ccc(C)c(-n2c(C)c(C)n3c4c(=O)n(CCN5CCOCC5)c(=O)n(C)c4nc23)c1,-1,-2
c1ccc2cc(-c3cnnc(N4CCOCC4)n3)ccc2c1,0,-1
CC(C)CN1CCN(C2(C(N)=O)CCCCC2)CC1,10,8
COC(=O)C(=CC(=O)C(C)(C)C)NNC(=O)c1c(I)cnn1C,1,-4
N#Cc1ccc(Cl)c(Cl)c1,8,6
COc1ccc(S(=O)(=O)NCCNc2ccc(Nc3ccncc3)nn2)cc1C,13,5
CC1CCCCN1C(=O)C(C1CCCC1)N1CCN(C(=O)c2cc(F)cc(F)c2)CC1 (stereo unspecified),2,9
O=C(Nc1ccccc1)C1=C(N2CCOCC2)/C(=C/c2cccnc2)CC1,-1,-2
CSCC(C)(O)CNc1c(F)cc(C#N)cc1F (stereo unspecified),6,4
Cc1cc(C)nc(NCc2ccccc2CN(C)C(C)C)n1,2,1
CCS(=O)c1ccccc1C(=O)OC(C)C(=O)NC(=O)NC (stereo unspecified),1,-1
CCn1cc(C#N)c(=O)n(Cc2cc(=O)n3ccc(C)cc3n2)c1=O,8,6

# Later entries
SMILES,NPYLR7 ag,NPYLR7 ag max-min
Cc1cccc(C)c1Nc1nnc(C)c(=O)[nH]1,-1,-2
Cc1cc(C(=O)CN2C(=O)C(=O)N(CC(C)C)C2=O)c(C)n1C1CC1,2,2
COc1ccccc1NC(=O)Cc1csc(NC(=O)NC2CCCCC2)n1,-4,-4
Cc1cc(NC(=O)c2ccc(F)cc2)n(-c2nc3c(c(=O)[nH]2)CCC3)n1,1,-2
COCC(=O)N1CCC(C(=O)NC2CCCC[C@H]2NC(=O)c2ccccc2C)CC1 (stereo partly specified),1,8
Cc1ccc(NC(=O)C2(C)CCN2Cc2cccc3c2OCO3)cc1 (stereo unspecified),6,0
Cc1ccccc1C1(O)CCN(Cc2cnc(-c3ccccn3)nc2)C1 (stereo unspecified),7,4
COc1cc(-c2[nH]nc3nccc(-c4ccoc4)c23)cc(OC)c1OC,1,0
Cc1sc2nc(C3CC3)nc(N3CCN(C(=O)COCc4ccccc4)CC3)c2c1C,-2,4
